Assay outcomes from PubChem.
MT1-MMP act inh: inhibitors of human MT1-MMP activation; P50281; HT1080 RFP-PRO-GFP cells, GFP/RFP ratio fluorescence, overnight; percent of plate control window, DMSO zero; GFP/RFP ratio change, % at 20 µM; 360,000 compounds, 0.061% hits; AID 651647;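 active = GFP/RFP ratio change of at least 30% with cell ATP level not reduced by more than half and red fluorescence within 50% of control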; also: strong numbers were not always called active
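Assay system: RFP-PRO-GFP reporter HT1080 cells; read-out basis: GFP/RFP fluorescence ratio; benchmarks: DMSO wells and RFP-L50D-GFP cells; doses: 20 µM single dose, 1% DMSO; schedule: overnight cell settling, then overnight compound exposure, 37 °C, 5% CO2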
Rce1 inhib: yeast Ras-converting enzyme inhibition | Q03530 | yeast membranes, quenched prenylated peptide cleavage fluorescence | calls only | 290,000 compounds, 0.27% hits | AID 2563;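 active = fall in fluorescence gain of 50% or more versus controls, with final raw signal at or below 3038400; inconclusive = same 50% fall but final raw signal above 3038400; inactive = fall in fluorescence gain under 50%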;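 also: plate controls were neutral control wells for no effect and wells lacking membranes for full effect; tested at 10 µM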
CSC inhib: blocks cancer stem cells; cancer stem cell-like cells viability, luminescence; 300,000 compounds, 1.1% hits; inhibition, % at 7.5 µM;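 active = mean at 75% or more and at least half the replicates too; inconclusive = mean and replicates disagree; tested in HMLE shEcad cells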;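 also: 0% = median of negative and 100% = median of positive control wells; the first replicate is given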
Env fusion inh: HIV envelope-mediated fusion inhibition. HeLa-JRFL Env/CEM21 cell fusion, luciferase. inhibition, % at 12.3 µM. 360,000 compounds, 1.1% hits;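 active = mean replicate inhibition score of at least 50 and every replicate individually at or above 50; inconclusive = only one of the two criteria met; inactive = mean below 50 and not all replicates reaching 50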;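 also: 0% = plate neutral controls and 100% = maraviroc near 300 nM; one replicate is shown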
UUG fidelity: yeast start codon fidelity modulation; S. cerevisiae UUG-firefly luciferase reporter, luminescence/redox ratio; activity score, % at 18.7 µM; 350,000 compounds, 0.13% hits;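 active = replicate mean at a twofold rise or more, about +100% in these data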;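 also: firefly luciferase made from a UUG start codon reports start codon fidelity; reporter light over untreated wells divided by growth signal over untreated wells; some hits fall short of that in this replicate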
PABP FP inh: blocks human PABP binding to poly(A) RNA. fluorescence polarization. AID 2014. 290,000 compounds, 1% hits. inhibition, % at 35 µM. P11940;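 active = 50% or more with normal probe brightness, or confirmed in later tests; inconclusive = above 50% with abnormal brightness, or retests that disagree; inactive = below 50% or failed in later tests; about a fifth of its hits are not listed in these tables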;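 also: calls also rest on retests at 20 µM and on dose response follow-up; controls were probe without protein and protein plus probe with vehicle; some compounds called inactive have numbers as strong as hits; many hits fall short of the cut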
Target sequence (P11940 whole entry, looked up): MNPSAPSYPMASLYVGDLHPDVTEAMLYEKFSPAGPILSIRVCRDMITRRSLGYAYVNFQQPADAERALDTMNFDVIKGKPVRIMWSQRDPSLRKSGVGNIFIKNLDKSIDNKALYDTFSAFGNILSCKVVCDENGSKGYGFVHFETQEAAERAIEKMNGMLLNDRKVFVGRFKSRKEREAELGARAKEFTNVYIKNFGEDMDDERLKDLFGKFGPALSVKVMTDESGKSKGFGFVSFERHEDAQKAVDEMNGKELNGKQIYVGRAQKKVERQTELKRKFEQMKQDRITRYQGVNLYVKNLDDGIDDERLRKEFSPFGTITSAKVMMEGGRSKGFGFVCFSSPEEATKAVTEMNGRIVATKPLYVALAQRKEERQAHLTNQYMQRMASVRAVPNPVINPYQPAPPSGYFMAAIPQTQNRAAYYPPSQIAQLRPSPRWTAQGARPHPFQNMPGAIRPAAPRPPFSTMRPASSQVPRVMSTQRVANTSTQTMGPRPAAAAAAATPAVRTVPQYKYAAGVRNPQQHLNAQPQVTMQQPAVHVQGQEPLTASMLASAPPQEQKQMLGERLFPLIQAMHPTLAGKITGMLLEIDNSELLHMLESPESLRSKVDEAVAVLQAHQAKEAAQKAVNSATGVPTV
eIF4H inh: inhibitors of RNA binding by human eIF4H | eIF4H fluorescence polarization binding assay | inhibition, % at 35 µM | 290,000 compounds, 0.94% hits;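 active = 50% or more with normal probe brightness, or confirmed in later tests; inconclusive = above 50% with abnormal brightness, or retests that disagree; inactive = below 50% or failed in later tests; about a fifth of its hits are not listed in these tables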;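 also: calls also rest on retests at 20 µM and on dose response follow-up; 0% = protein and probe with vehicle and 100% = probe without protein; strong numbers were not always called active; many hits fall short of the cut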
MT1-MMP act inh RFP: recorded beside MT1-MMP act inh, whose call it bears; RFP signal change, %; measured here: RFP expression control read;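 0 = vehicle wells; hits needed this value within 50% of zero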
The depositor's hits bear a star; i = inactive; ? = inconclusive; / = no result given; & = joins results of further samples.

Every second line gives: MT1-MMP act inh, MT1-MMP act inh RFP, Rce1 inhib, CSC inhib, Env fusion inh, UUG fidelity, PABP FP inh, eIF4H inh
O=C(O)c1cc(S(=O)(=O)N(Cc2ccccc2)c2ccccc2Cl)ccc1Cl
→ -2, 3, i, -11, 7, 8, 13, -7
Cc1cc(Cl)ccc1NC(=O)CSc1nnc(Cc2cccs2)n1Cc1ccco1
→ -2, -1, i, 11, -71, -33, 3, 14
O=C(N/N=C/C=C/c1ccccc1)C1CC1(c1ccccc1)c1ccccc1 (configuration not stated)
→ -5, -8, i, 17, /, -17, -1, -8
CCCCOc1ccc(OCCNC(=O)C2CCCN2C(=O)Nc2ccccc2)cc1 (configuration not stated)
→ 3, -3, i, /, 7, -1, 5, 4
CCCC1=C(C(=O)OCC)C(c2ccc(N(C)C)cc2)n2ncnc2N1 (configuration not stated)
→ -14, -8, i, -1, -13, -17, 2, 1
N#C/C(=C\c1cccs1)C(=O)N1CCOCC1
→ 1, 6, i, -2, 18, /, -5, 1
COc1ccc(/C=C2/SC(=S)N(NS(=O)(=O)c3ccccc3)C2=O)cc1
→ -1, 1, i, 7, -16, -8, 3, -4
CC1C(=O)N2CCCc3cc(S(=O)(=O)NCc4ccc(F)cc4)cc1c32 (configuration not stated)
→ -4, 1, i, 3, 2, -3, /, /
Cc1ccc(NC(=O)CCNC(=O)c2ccc([N+](=O)[O-])cc2)cc1S(=O)(=O)N(C)C
→ 9, -6, i, 3, 20, /, -7, -6
Cc1ccc(S(=O)(=O)N2CCCCC2)cc1NC(=O)COc1ccccc1F
→ 0, -2, i, -15, 13, -2, -4, -3
c1ccc(C[C@H]2CN=C(Nc3ccccc3)N2CC2CCC2)cc1
→ 1, -1, /, -14, -9, -36, /, /
CC(=O)N/C(=C\c1ccccc1)C(=O)OCC(=O)Nc1cc(S(=O)(=O)N(C)C)ccc1C
→ -5, -7, i, -11, /, 1, /, /
CCCCn1c(N)c(N(CC)C(=O)c2cc(C)cc(C)c2)c(=O)[nH]c1=O
→ -4, -3, i, 7, 4, -2, 4, 7
COc1ccc(CCNC(=O)C2CCN(S(=O)(=O)N3CCC(C)CC3)CC2)cc1OC
→ 4, -1, i, -17, 6, -2, 2, -3
O=C1C2C3C=CC(C3)C2C(=O)N1CCCCCCN1C(=O)C2C3C=CC(C3)C2C1=O (configuration not stated)
→ -3, -12, i, 23, 17, /, 2, 3
Cc1ccccc1OCCCC(=O)NC1CCCCC1
→ 1, 4, i, 6, -4, -5, 6, 11
COC(=O)c1cc(-c2ccccc2)n(CCN)c1C
→ -2, 1, i, -6, 1, -12, /, /
CC(C)CC(=O)Nc1ccccc1N1CCN(c2ccc(F)cc2)CC1
→ 0, 5, i, -15, -8, /, -8, -5
CC(C)NC(=O)NNc1c(Cl)cncc1Cl
→ 1, -5, i, -4, 17, -7, 5, 8
O=C(O)C1CC(c2ccccc2)=Nc2ccccc2S1 (configuration not stated)
→ 0, -1, i, 2, -3, -5, -7, 10
COc1cc(NC(=O)COC(=O)CNC(=O)c2ccc(C)s2)cc(OC)c1
→ 1, 1, i, 0, -7, /, -11, -7
O=C(N/N=C/c1ccc2c(c1)OCO2)C(=O)Nc1ccccc1Cl
→ /, /, i, 7, -35, 2, -1, -12
O=C(COc1ccc(Cl)cc1Br)OCC(=O)c1ccc[nH]1
→ -2, 1, /, -11, -6, -4, /, /
CCN1CCN(C(C(=O)NC2CCCCC2)c2ccnc3ccccc23)CC1 (configuration not stated)
→ 3, 5, /, /, 16, -4, /, /
COc1ccccc1C(=O)Nc1nnc(-c2ccc(F)cc2)o1
→ 6, 6, i, 8, -22, -17, 0, -5
Cc1ccc2cc(C#N)c(SCC(=O)NCc3ccco3)nc2c1
→ -3, 3, i, 4, -64, -16, 9, 4
CCCCn1c(N)c(N(CCOC)C(=O)CCS(=O)(=O)c2ccc(C)cc2)c(=O)[nH]c1=O
→ 0, 2, /, /, 1, -6, /, /
CCOc1ccc(C2=Nn3c(nnc3-c3ccco3)SC2)cc1
→ 11, -1, i, 2, -26, -17, 7, 3
OCCC1CN(Cc2cnc(N3CCOCC3)s2)CCN1C1CCCC1 (configuration not stated)
→ 2, 2, i, -10, -10, /, 2, -4
CC(C)OC(=O)CSc1nnc(Cc2ccccc2)n1CC1CCCO1 (configuration not stated)
→ 1, -1, i, 11, -106, -10, -10, -4

Six entries picked at random from those above:
Every second line gives: MT1-MMP act inh, MT1-MMP act inh RFP, Rce1 inhib, CSC inhib, Env fusion inh, UUG fidelity, PABP FP inh, eIF4H inh
COc1cc(NC(=O)COC(=O)CNC(=O)c2ccc(C)s2)cc(OC)c1
→ 1, 1, i, 0, -7, /, -11, -7
O=C(O)C1CC(c2ccccc2)=Nc2ccccc2S1 (configuration not stated)
→ 0, -1, i, 2, -3, -5, -7, 10
COc1ccccc1C(=O)Nc1nnc(-c2ccc(F)cc2)o1
→ 6, 6, i, 8, -22, -17, 0, -5
O=C(N/N=C/c1ccc2c(c1)OCO2)C(=O)Nc1ccccc1Cl
→ /, /, i, 7, -35, 2, -1, -12
Cc1ccccc1OCCCC(=O)NC1CCCCC1
→ 1, 4, i, 6, -4, -5, 6, 11
COC(=O)c1cc(-c2ccccc2)n(CCN)c1C
→ -2, 1, i, -6, 1, -12, /, /

(further entries)
Every second line gives: MT1-MMP act inh, MT1-MMP act inh RFP, Rce1 inhib, CSC inhib, Env fusion inh, UUG fidelity, PABP FP inh, eIF4H inh
CS(=O)(=O)c1ccccc1C(=O)Nc1cc2c(cc1C(=O)O)OCCCO2
→ 3, 3, i, 6, 15, -6, 6, 6
CCOC(=O)Cc1csc(NC(=O)CSc2nncn2C)n1
→ 6, 1, i, -7, /, -3, -3, 12
O=C1c2ccccc2/C(=C\C#Cc2ccccn2)N1c1ccccc1
→ -23, 2, /, 43, -23, -5, /, /
CCOC(=O)c1ccccc1NC(=O)Cn1cnc2c(nnn2-c2ccc(C)cc2)c1=O
→ -2, -10, i, -12, -1, -23, 5, 5
Cc1ccc(S(=O)(=O)/N=C2/NC(=O)/C(=C/c3ccncc3)S2)cc1
→ /, /, i, -1, -20, /, -4, 6
O=C(Cn1nnc(-c2ccccc2NC(=O)c2ccccc2)n1)Nc1ccc2c(c1)OCCO2
→ 9, -2, i, 2, -173, -12, 8, -5
O=C(c1ccco1)N1CCN(S(=O)(=O)c2ccc(S(=O)(=O)NC3CCCC3)cc2)CC1
→ 0, 1, i, 1, /, -11, 4, 7
CSc1ccc(/C=N/NC(=O)c2sccc2C)cc1
→ 5, 5, i, 34, -134, -9, 10, 6
COc1ccccc1CN(C)C[C@@H]1OCc2cnnn2CCCC(=O)N([C@@H](C)CO)C[C@H]1C
→ -2, 3, /, /, 14, -2&5, /, /
O=C(c1ccc2c(c1)OCO2)C1CCCN(Cc2ccc(OC(F)F)cc2)C1 (configuration not stated)
→ 1, -10, i, 23, 4, -7, -3, 2
COC(=O)[C@@H](NS(=O)(=O)c1ccc(F)cc1Br)C(C)C
→ 0, 2, /, /, 8, -16, /, /
CC(C(=O)Nc1ccc2c(c1)OCCO2)n1nnc(-c2ccccc2)n1 (configuration not stated)
→ -1, 3, i, 3, 6, /, -3, -1
c1ccc(CCNc2ncnc3sccc23)nc1
→ -9, -22, i, -1, -5, /, -5, 12
Cc1cc(C)cc(NC(=S)Nc2cccc3cnccc23)c1
→ 0, 3, /, /, -9, /, -1, 16
Cn1c(/C(C#N)=C(\O)COc2ccc3ccccc3c2)nc2ccccc21
→ -4, 5, i, ?, /, -4, -3, -1
O=C(Nc1c(Cl)cc(Cl)cc1C(=O)NCCN1CCOCC1)c1ccc(Cl)cc1Cl
→ -9, 3, i, -1, -30, -5, -7, -2
O=C(O)c1cccc(Cn2c(Cl)c(/C=N/Nc3ccccc3)sc2=O)c1
→ -32, 3, i, 13, /, /, -3, -3
O=C(Nc1ccc(Cl)cc1)C1CCCN1C(=O)NCc1ccccc1 (configuration not stated)
→ 0, 0, i, 4, 3, -16, 0, -2
COc1ccccc1N(C)S(=O)(=O)c1ccc(Cl)c(C(=O)N2CCC(C(N)=O)CC2)c1
→ 2, 6, i, 9, -18, 13, -8, -6
COc1ccccc1/C=C/C(=O)NCC(=O)N/N=C/c1ccc(C(=O)O)cc1
→ 3, 6, i, /, -1, 1, 9, -7
CC1CCCN(CC(=O)Nc2ccc(S(=O)(=O)NC3CCCCC3)cc2)C1 (configuration not stated)
→ /, /, i, 31, /, -26, -3, -1
Cc1ccccc1OCCCCN1CCCCC1
→ -1, 3, i, 1, -3, -15, 3, 1
Cn1c(SCc2nc(-c3ccc(Cl)cc3)no2)nnc1-c1ccccc1
→ 1, 1, i, 9, /, -18, -8, 4
COc1ccc(C2=NCC(CSc3nccc(=O)[nH]3)S2)cc1 (configuration not stated)
→ -1, 4, i, -14, /, -13, 9, -4
Cc1ccc(NC(=O)c2cc(S(=O)(=O)N3CCCCC3)ccc2N2CCOCC2)cc1
→ 1, 5, /, /, 23, 0, /, /
O=C(CN(CC1CCCO1)C(=O)CNS(=O)(=O)c1ccc(Cl)cc1)NCC1CCCO1 (configuration not stated)
→ 2, 6, i, -11, 3, -12, 0, -1
CC1=CC(=C(C#N)C#N)C=C(C)N1CCN1CCN(C(=O)Nc2ccc(Cl)c(Cl)c2)CC1
→ -3, -3, i, -13, 21, /, -1, 2
O=S(=O)(NCc1ccccc1Cl)c1ccc(-n2cnnn2)cc1
→ -1, 1, i, -3, -71, -10, 4, -7
CC(C)CNCC(=O)N1c2ccccc2Sc2ccccc21
→ 3, 5, i, -5, -34, -9, 4, 8
COc1cc(C2NC(=O)NC(C)=C2C(=O)Nc2cccc(C)c2C)cc(OC)c1OC (configuration not stated)
→ 1, 4, i, -9, -86, 11, 1, -15
Cc1cc(NCCN2CCOCC2)n2nc(C)c(-c3ccccc3)c2n1
→ 3, 1, i, -8, /, -14, 4, -9
C#CCOCCOCCOCCNc1nc(N2CCN(C(=O)[C@H](CCCCN)n3cc(CN)nn3)CC2)nc(N2CCN(C(=O)[C@H](CO)n3cc([C@@H](N)C(C)C)nn3)CC2)n1
→ 1, 3, /, -8, 40, -1, /, /
Cc1cc(C(=O)CSc2nc(N)cc(=O)[nH]2)c(C)n1-c1cccc(F)c1
→ 12, -17, i, -4, /, -12, -2, 27
Cc1ccccc1-c1csc(C(O)c2ccc(F)c(F)c2)n1 (configuration not stated)
→ -1, -3, /, /, -10, -11, /, /
CC(=O)Nc1ccc(NC(=S)Nc2ccc(Br)cc2)cc1
→ 0, -3, i, 14, 7, /, -7, -1

A portion of the library; count on the stated rates, not on these rows.
